CtBP-E1A inh: blocks the CtBP interaction with E1A; AlphaScreen GST-E1A/His-CtBP binding, 1536-well; stronger effect = lower value; control for the full effect not named in the record; activity change, % (test concentration not listed); hit rate 0.49% among 340,000; in the data active means activity change below about -65%; inconclusive means about -30% to -65%; inactive means above about -30%; also: % is scaled to controls: 0 for no effect and ±100 for the full control effect; compound concentration not given in the record
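Homogeneous bead-based format: GST-tagged E1A captured on glutathione donor beads, His-tagged CtBP on nickel acceptor beads; compounds precede bead addition by 2 h at 37 °C.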
ClpP mod: qHTS Assay for Activators of ClpP; purified B. subtilis ClpP, FRET peptide cleavage, 20 min; AID 651965, 2013; ATP-dependent Clp protease proteolytic subunit (Bacillus subtilis (strain 168)), P80244; Potency, µM (top dose mostly 57.5 µM), inactives show at the top dose activity change, negative = active; hit rate 1.9% among 340,000; active = well fitted falling curve with a large enough effect; inconclusive = small, poorly fitted or top-dose-only effect; inactive = no such curve, though single readings can be large or run the other way; also: potency is read from the fitted curve at half-maximal effect; the source files actives as falling curves though it sought activators and does not explain the sign; nearly all actives have a fitted effect of over 65% in size; many hits overshoot -100%
Target sequence (P80244 whole entry, looked up): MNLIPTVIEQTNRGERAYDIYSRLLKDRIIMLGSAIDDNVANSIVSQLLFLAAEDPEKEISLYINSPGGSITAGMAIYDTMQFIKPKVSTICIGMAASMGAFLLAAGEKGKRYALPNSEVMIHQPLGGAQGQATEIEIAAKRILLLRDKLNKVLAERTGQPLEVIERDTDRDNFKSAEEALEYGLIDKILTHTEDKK
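Buffer: 100 mM Tris/HCl pH8, 100 mM KCl, 0.05% low protease BSA, 2.5% glycerol, 0.01% Tween-20. ClpP 10 microg/mL final; 20 min RT; delta FRET normalized to ADEP and DMSO controls.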
Menin MLL FP FL: menin-MLL binding inhibition, fluorescein peptide. Fluorescence polarization, fluorescein-MLL peptide displacement from menin. FP activity change, % at 61.4 µM. 290,000 tested, under 10 active. AID 1766; inconclusive = falling polarisation curve, or a change in total fluorescence; inactive = total fluorescence flat and polarisation flat or rising; no compound was filed as active; the % refers to the polarisation; negative = inhibition;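 also: % of control where 0% means no effect; inhibitors lower the polarisation; unlabelled MLL peptide was the positive control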
gsp antag: gsp mutant antagonism | hit rate 0.4% among 340,000 | Potency, µM (highest dose often 76.9 µM), for inactives: top-dose activity change, negative = inhibition, actives largely listed as inhibitors | gsp-mutant cells, cAMP HTRF, 30 min; control for the full effect not named in the record | AID 624288; active = falling curve of any shape with a large fitted effect; inconclusive = falling curve, mostly with a smaller effect; inactive = flat or rising curve; cell line not stated here;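 also: intracellular cAMP measured with PDE inhibitor Ro 20-1724 present during compound exposure; potency is read from the fitted curve at half-maximal effect; % is scaled to controls: 0 for no effect and ±100 for the full control effect; nearly all actives have a fitted effect of over 65% in size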
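Cells, 2000/well, grown 16–24 h in DMEM 10% FBS with 0.5 mg/ml G418, then compounds plus […] (300 uM addition stock), 30 min at 37C. cAMP read by HTRF (cAMP-d2 and anti-cAMP antibody-K in lysis buffer) after 30 min RT.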
Sfp PPTase inh: Sfp phosphopantetheinyl transferase inhibition. Q9F4F7. hit rate 3.5% among 310,000. AID 1490. Biochemical Sfp PPTase activity, qHTS. Potency, µM, for the others: max response, negative = inhibition, hits mostly inhibitors; active = well fitted inhibition curve with a large enough effect; inconclusive = small, poorly fitted or top-dose-only effect, or another doubt; inactive = no such curve, though single readings can be large or run the other way;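 also: the enzyme is Sfp with the accession as filed and its product quenches rhodamine fluorescence; potency is read from the fitted curve at half-maximal effect; 0% = enzyme reaction without inhibitor and -100% = no enzyme wells; top concentration of the series not given in the record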
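After 15 min at room temperature with compound, 15 nM Sfp received 5 uM rhodamine-CoA plus 12.5 uM BHQ-2-ybbR (50 mM Hepes pH 7.6, 10 mM MgCl2). Rate came from the fluorescence difference over 30 min, ex 525/em 598 nm.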
TRPV1 potentiator: human TRPV1 potentiation; hit rate 0.02% among 320,000; TRPV1-expressing cells, Fluo-8 calcium influx, capsaicin EC20 potentiation; host cell line not named in the record; control for the full effect not named in the record; potentiation, % at 8.33 µM; Q8NER1; active means potentiation above 80%; inconclusive means 30% to 80%; inactive means below 30%; also: 0% is about no effect
Target sequence (Q8NER1 whole entry, looked up): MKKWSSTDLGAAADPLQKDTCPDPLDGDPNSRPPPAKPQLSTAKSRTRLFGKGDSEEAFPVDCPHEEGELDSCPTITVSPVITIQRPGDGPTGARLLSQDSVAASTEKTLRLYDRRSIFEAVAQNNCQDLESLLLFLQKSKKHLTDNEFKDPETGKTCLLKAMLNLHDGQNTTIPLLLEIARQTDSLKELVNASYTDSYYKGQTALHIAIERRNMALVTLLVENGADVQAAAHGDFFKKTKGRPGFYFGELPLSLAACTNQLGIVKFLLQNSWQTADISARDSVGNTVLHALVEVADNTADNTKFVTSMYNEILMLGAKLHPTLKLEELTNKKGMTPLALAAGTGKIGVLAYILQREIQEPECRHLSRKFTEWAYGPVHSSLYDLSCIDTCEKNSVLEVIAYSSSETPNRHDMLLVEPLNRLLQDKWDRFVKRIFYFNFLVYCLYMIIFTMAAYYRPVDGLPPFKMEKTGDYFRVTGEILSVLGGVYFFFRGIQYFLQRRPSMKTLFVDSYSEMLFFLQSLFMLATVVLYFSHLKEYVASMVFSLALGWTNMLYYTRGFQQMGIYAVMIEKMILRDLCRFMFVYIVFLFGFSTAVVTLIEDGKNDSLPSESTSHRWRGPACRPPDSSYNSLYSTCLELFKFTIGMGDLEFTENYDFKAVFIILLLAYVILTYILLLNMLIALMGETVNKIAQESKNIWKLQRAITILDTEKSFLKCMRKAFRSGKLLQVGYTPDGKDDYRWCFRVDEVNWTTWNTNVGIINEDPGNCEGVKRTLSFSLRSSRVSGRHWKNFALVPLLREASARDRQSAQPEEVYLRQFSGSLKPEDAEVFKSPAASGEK
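TRPV1-expressing cells were cultured overnight at 35.5C and loaded with Fluo-8 calcium dye for 40 to 90 min at room temperature. After a 10 s baseline, compound was added and calcium influx was read kinetically for 3 min (ex 480/em 520 nm).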
gsp agonist: gsp mutant agonism; AID 624287; hit rate 0.13% among 340,000; gsp mutant cells, cAMP HTRF, 30 min; control for the full effect not named in the record; Potency, µM (titrated, usually from 76.9 µM), for inactives: top-dose activation (cAMP increase), most hits filed as activators; active = well fitted activation curve with a large enough effect; inconclusive = small, poorly fitted or top-dose-only effect, or another doubt; inactive = no such curve, though single readings can be large or run the other way; cell line not stated here;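 also: phosphodiesterase inhibitor Ro 20-1724 added with compounds to block cAMP breakdown; potency is read from the fitted curve at half-maximal effect; nearly all actives have a fitted effect of over 60% in size; about a fifth of the inactives were tested at one dose only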
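Cells stably selected in G418 were plated at 2000/well, grown 16-24 hr, then given compounds in DMSO with the PDE inhibitor […] (300 uM solution added) for 30 min at 37C; cAMP was read by HTRF.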
Numbers without * were called inactive; ? = inconclusive; · = no result given; [ ] = remark or other dose.

SMILES | CtBP-E1A inh | ClpP mod | Menin MLL FP FL | gsp antag | Sfp PPTase inh | TRPV1 potentiator | gsp agonist
CN1C(=S)SC(C)(C)C1(C)NO (stereo not given) | 2 | 0.7% | 0.9 | 10% | -18% | 3 | -18%
CCOC(CNC(=O)Cn1nc(C)c2ccccc21)OCC | 2 | 0.6% | 0.1 | 7% | -7% | -5 | 2%
COc1ccc(NC(=O)N2CCN(c3nc4ccccc4n3C(C)C)CC2)cc1 | 1 | · | 0.4 | -1% | -11% | 1 | 29%
CCS(=O)(=O)c1nc(S(=O)(=O)c2ccc(C)cc2)c(NCCCN(C)C)s1 | 1 | -1.1% | -0.9 | 3% | -8% | -2 | ?
CN(C)S(=O)(=O)c1ccc(N2CCCC2)c(C(=O)Nc2ccccc2)c1 | 8 | -23% | · | -9% | · | -4 | -31%[inhibitor]
CCn1c(SCC(=O)N/N=C/C=C/c2ccccc2[N+](=O)[O-])nnc1-c1ccccc1 | -1 | 2.1% | -5.5 | 5% | 6% | -5 | -2%
Nn1c(Cc2ccc(F)cc2)n[nH]c1=S | 0 | · | -4.4 | 4% | -29% | -8 | -12%[15.4 µM]
CSCCC(NC(=O)COc1ccccc1)C(=O)N1CCCCC1 (stereo not given) | 3 | -1.5% | · | 1% | 15% | 5 | 2%
Cc1cc(=O)[nH]c(N/N=C/c2cccc(Br)c2)n1 | -25 | · | -6.4 | -6% | ? | 14 | -21%
COc1ccc(NC(=O)CN(C)CC(=O)Nc2ccc(Cl)cc2[N+](=O)[O-])cc1 | -16 | 1.2% | 0.4 | -64% | -20% | -10 | -3%[15.4 µM]
COc1cccc(NC(=O)CCC2CCN(Cc3nccs3)CC2)c1 | 2 | 0.7% | · | 2% | 12% | ? | -38%[inhibitor]
Cc1csc(/N=C/c2ccc([N+](=O)[O-])cc2)n1 | 7 | 1.0% | 3.3 | -8% | 8% | 4 | 1%[15.4 µM]
NNC(=O)c1oc2nc(-c3ccccc3)cc(-c3ccccc3)c2c1N | 6 | 0.6% | 5.8 | -24% | -4% | -4 | -4%[15.4 µM]
COc1ccc(-c2oc3ncn4nc(COc5ccccc5)nc4c3c2-c2ccc(OC)cc2)cc1 | 10 | -44% | 0.5 | 5% | 5% | -5 | -3%
CCCn1cnc2cc(NCc3cccs3)ccc21 | -3 | · | 2.8 | -5% | 3% | ? | 3%[15.4 µM]
O=C(O)CN1CCNCCN(CC(=O)O)CCNCC1 | 17 | 1.7% | · | 8% | · | · | 2%
CCCCC(C(=O)NC1CCCC1)N(C(=O)c1snc(C(N)=O)c1N)c1ccc(C)cc1 (stereo not given) | -23 | · | 2.7 | -15% | 13% | -19 | 1%
COc1cccc(Nc2ncnc3onc(-c4ccccc4OC)c23)c1 | 3 | -5.0% | -0.2 | -23% | -2% | -11 | ·
CCOC(=O)c1nc(C)n(-c2ccc([N+](=O)[O-])cc2)n1 | -8 | · | -5.0 | 6% | 11% | -3 | ?
Cc1nc(SCC(=O)NCCc2ccccc2)nc(C)c1C | 1 | 16µM* | -2.4 | 6% | 1% | 0 | 8%
CCOC(=O)/C(C#N)=C1\C=CN(C)C(C)=N1 | 5 | -2.2% | 3.2 | 2% | 12% | 6 | -19%
CC(C)Nc1nc(-c2ccccn2)nc(-c2ccccc2)c1C#N | 2 | · | -4.1 | -6% | 14% | -6 | ?
CC(=O)c1cccc(N(CC(=O)Nc2ccc(S(=O)(=O)N3CCCC3)cc2)S(C)(=O)=O)c1 | 4 | 1.2% | · | -26% | 4% | -17 | -23%
CCOC(=O)C1=C(C)N(C)C(=O)NC1c1cc2c(cc1[N+](=O)[O-])OCO2 (stereo not given) | 1 | · | -11 | -4% | 50µM* | 5 | -11%
O=C(COc1ccccc1-c1ccccc1)c1ccccc1 | 5 | 0.9% | -1.0 | 11% | -13% | 11 | -43%[inhibitor]
N#CCSc1nnc(Cc2ccc3c(c2)OCO3)o1 | -4 | 1.9% | 3.4 | 15% | 2% | 4 | -38%[inhibitor]
Cc1ccc(S(=O)(=O)N(C)C)cc1NC(=O)COC(=O)CC1CCCC1 | -2 | -2.6% | · | 6% | · | 2 | -5%
CC(CCC(=O)O)(c1ccc(O)cc1)c1ccc(O)cc1 | 0 | -0.7% | · | 8% | · | -2 | ·
OCc1ccccc1OCCCOc1cccc2cccnc12 | -3 | 0.4% | 4.2 | -14% | 20% | 15 | 22%[15.4 µM]
Cc1ccc(N2CC(C(=O)Nc3nnc(SCCN4CCOCC4)s3)CC2=O)cc1C (stereo not given) | -8 | -1.1% | · | -3% | -6% | 21 | 13%
O=C(C[C@H]1C/C=C\CC[C@H](Cc2ccc(F)cc2)C(=O)O[C@@H](c2ccccc2)CNC1=O)N[C@@H](CO)Cc1ccccc1 | · | 1.3% | · | -13% | · | · | -45%[inhibitor]
CC(C)c1ccc(S(=O)(=O)Nc2ccc(SC(F)F)cc2)cc1 | -3 | 0.5% | 0.3 | 1% | 25% | 4 | 10%
O=C(Nc1cccc(Cl)c1N1CCOCC1)c1cc([N+](=O)[O-])ccc1N1CCOCC1 | -8 | -0.6% | -0.3 | -16% | -3% | -26 | ?
CC(=O)NCC(=O)OCC(=O)Nc1nc(-c2ccccc2)cs1 | -6 | · | -1.0 | 4% | 2% | 2 | ?
O=C(Nc1ccccc1-c1nnc(SCc2ccc(Cl)cc2)o1)c1ccccc1 | 13 | 10µM* | 2.1 | -2% | -11% | 11 | 0%
CCN(CC)S(=O)(=O)c1ccc(O)c(NC(=O)CN2CCc3ccccc3C2)c1 | -16 | · | -1.0 | · | 33%[activator] | 6 | -14%[15.4 µM]
COc1ccc(N=c2oc3ccccc3cc2C(=O)Nc2ccccn2)cc1OC | · | · | 1.2 | · | -13% | 20 | ·
Cc1ccc(S(=O)(=O)N2CCCCC2)cc1NC(=O)COC(=O)c1ccccc1F | 8 | · | 2.9 | -4% | 17% | -2 | 21%
N#CCCn1cc(C(=O)Nc2ccccc2Br)c(-c2cccs2)n1 | 0 | 1.1% | 4.5 | -15% | 3% | 5 | 30%
CCOc1ccc(S(=O)(=O)N(CC(=O)N2CCC(C(N)=O)CC2)c2ccc(F)cc2)cc1 | -7 | -5.5% | · | 9% | 10% | 4 | 6%[15.4 µM]
CN(C)S(=O)(=O)N1CCC(n2nccc2NC(=O)CCCc2ccccc2)CC1 | 3 | -0.2% | · | -2% | 5% | 0 | 12%
CC1CCN(C(=O)c2cc(-c3ccc4c(c3)OCO4)on2)CC1 | 2 | · | -6.7 | 5% | 5% | ? | 41%
CC(=O)c1cccc(NC(=O)c2cccc(S(=O)(=O)N(C)C)c2)c1 | -5 | -11% | 1.2 | 1% | -2% | 16 | 21%
CC(C)N(C)Cc1cn(C)nc1-c1ccc(Oc2ccccc2)cc1 | 2 | -0.8% | -1.7 | 10% | -2% | -10 | 2%[15.4 µM]
COc1ccccc1NC(=O)C(=O)N/N=C(\C)CC(=O)Nc1ccccn1 | · | 28% | 1.5 | 0% | 6% | -4 | -94%[inhibitor]
Cc1ccc(-c2nc(S(=O)(=O)c3ccc(C)cc3)c(N3CCOCC3)o2)cc1 | -7 | · | · | 1% | -46% | -6 | -5%[15.4 µM]
CCOc1ccc(Br)cc1C(=O)N/N=C/c1ccccn1 | -15 | · | 1.2 | 11% | -7% | -3 | 8%
Cc1ccc(CNC(=O)C2CCCN(c3nc4ccccc4o3)C2)cc1 (stereo not given) | -4 | -2.6% | -0.1 | 9% | 13% | -12 | 3%
O=C(CCCOc1ccc(Cl)cc1Cl)Nc1cccnc1 | -4 | -0.7% | -1.8 | -6% | 23% | -4 | -25%
Cc1ccc(C(=O)N(C)CC(=O)Nc2cccc(F)c2)cc1S(=O)(=O)N1CCCCC1 | 4 | 1.0% | · | -7% | · | 6 | 21%
CN(c1ccccc1)S(=O)(=O)c1cccc(C(=O)NCC(=O)Nc2ccc(F)c(F)c2F)c1 | · | 0.1% | · | ? | · | · | 26%
CCOCCCNC(=O)c1c[nH]c2c(CC)cccc2c1=O | -8 | · | 3.4 | -46% | 13% | 0 | 14%[15.4 µM]
O=C(Nc1ccccc1F)C1CCN(C(=O)NC2CCCCC2)CC1 | 4 | · | -0.1 | 7% | 22% | -5 | 2%[15.4 µM]
CCCNC(=O)c1onc(CSc2ccc(F)cc2)c1C(=O)NCCC | 6 | -2.7% | 0.8 | -8% | 3% | -13 | 20%
COc1ccc(/C(O)=C2\C(=O)C(=O)N(c3cc(C)on3)C2c2cccc(OC)c2OC)cc1C (stereo not given) | 3 | -1.3% | -1.6 | 1% | 17% | -5 | ?
CC1CCCCN1C(=O)COC(=O)c1n[nH]c2ccccc12 (stereo not given) | 8 | ? | 3.3 | 14% | 17% | 5 | ?
COc1ccc2nc(-n3c(C)ccc3C)sc2c1 | 7 | 3.6% | 3.7 | 2% | -15% | 9 | -17%
CCN(CC)S(=O)(=O)c1ccc(C(=O)Nc2nnc(C(C)C)s2)cc1 | -17 | -4.1% | 2.9 | -4% | 11% | -15 | -41%[inhibitor]
COc1ccc(C(=O)Oc2c(OC)cc(C(=S)N3CCOCC3)cc2OC)cc1OC | · | -4.7% | -0.2 | -2% | 40µM* | 24 | -213%[inhibitor]
CC(=O)NS(=O)(=O)c1ccc(N=c2ssc3c2-c2cc(C)ccc2NC3(C)C)cc1 | 0 | 1.4% | 2.8 | ? | 4% | 3 | 7%

(continued)
SMILES | CtBP-E1A inh | ClpP mod | Menin MLL FP FL | gsp antag | Sfp PPTase inh | TRPV1 potentiator | gsp agonist
Cc1ccc(OCC(=O)N2CCN(C(=O)CCC3CCCC3)CC2)cc1 | 4 | -0.5% | 1.5 | 3% | 14% | -16 | -27%
O=C(O)Cn1cnc2scc(-c3cccs3)c2c1=O | 9 | -16% | 6.1 | 3% | 56µM* | 7 | 3%
COc1ccc(CCC(=O)NCc2ccccc2OC)cc1 | 0 | 0.4% | -0.1 | 3.2µM* | 22% | -11 | ?
Cc1ccccc1-c1nc(-c2ccc(NC(=O)c3ccc4c(c3)OCO4)cc2)no1 | 1 | -17% | 3.4 | 10% | 14% | 3 | -2%
CNCCOc1ccccc1-c1ccccc1 | -1 | -0.3% | -1.9 | 13% | -1% | -7 | -29%

High-throughput results (PubChem BioAssay)
